Compound activity: PubChem, National Center for Advancing Translational Sciences (NCATS)
RE007 growth inh = less growth of the S. pombe RE007 Vpr strain; S. pombe RE007 Vpr strain, BacTiter-Glo ATP luminescence, 24 h; control for the full effect not named in the record; Potency, µM (doses to about 92.2 µM), for inactives: top-dose activity change, negative = less growth; 360,000 compounds, 0.21% hits; active = well fitted falling curve with a large enough effect; inconclusive = small, poorly fitted or top-dose-only effect; inactive = no such curve, though single readings can be large or run the other way;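 also: % is scaled to controls: 0 for no effect and ±100 for the full control effect; nearly all actives have a fitted effect of over 50% in size; the assay follows cell death caused by Vpr and the record does not say whether a fall means rescue or toxicity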
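Fission yeast RE007 carrying one integrated HIV-1 vpr copy, seeded at OD 0.01 in PMG+AL medium with 23 nL pinned compound. Grown 24 h at 30 degrees; viability read by BacTiter-Glo luminescence after 5 min.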
NS1 function inh = blocks influenza NS1 protein function. 270,000 compounds, 0.4% hits. Potency, µM (highest dose often 46.1 µM), for inactives: top-dose activity, positive = more growth. S. cerevisiae slowed by influenza A NS1, growth recovery by OD600; active means well fitted rising curve with a large enough effect; inconclusive means small, poorly fitted or top-dose-only effect; inactive means no such curve, though single readings can be large or run the other way; also: nearly all actives have a fitted effect of over 50% in size
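Growth recovery, yeast-based: influenza A NS1 expressed in S. cerevisiae causes slow growth, and suppressors are detected by OD600. The parent strain without NS1 is used as positive control.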
Marburg entry inh = blocks Marburg virus binding to or entry into cells | 300,000 compounds, 1.8% hits | Marburg virus pseudotyped entry inhibition, cell reporter; control for the full effect not named in the record; about a third of the inactives were read at about 46 µM | Potency, µM (series often up to 37.8 µM), for the others: at the top dose activity change, negative = inhibition, most hits filed as inhibitors; active = well fitted inhibition curve with a large enough effect; inconclusive = small, poorly fitted or top-dose-only effect, or effect the other way; inactive = flat fitted curve, though single readings scatter; tested in HEK293 cells; about a fifth of its hits are not listed in these tables; also: % is scaled to controls: 0 for no effect and ±100 for the full control effect; luciferase read-out
Cruzain inh noDet = blocks cruzain activity in detergent-free assay; Potency, µM, for the others: max response, negative = inhibition, hits mostly inhibitors; purified cruzain, Z-FR-AMC fluorescence, no detergent; 200,000 compounds, 2.3% hits; AID 1476; P25779;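 also: plate controls were enzyme without inhibitor for no effect and buffer without enzyme for full effect; nearly all actives have a fitted effect of over 40% in size; top concentration of the series not given in the record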
Target sequence (P25779 123-467 limits assumed): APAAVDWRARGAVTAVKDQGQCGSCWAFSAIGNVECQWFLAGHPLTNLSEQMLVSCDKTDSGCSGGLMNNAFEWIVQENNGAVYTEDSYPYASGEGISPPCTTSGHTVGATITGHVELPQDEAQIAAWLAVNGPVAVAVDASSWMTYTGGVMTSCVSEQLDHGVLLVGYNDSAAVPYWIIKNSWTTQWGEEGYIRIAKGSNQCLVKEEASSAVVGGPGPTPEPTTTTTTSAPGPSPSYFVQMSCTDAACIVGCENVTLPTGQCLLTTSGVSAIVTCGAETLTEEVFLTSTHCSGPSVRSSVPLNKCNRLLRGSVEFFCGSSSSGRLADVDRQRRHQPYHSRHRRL
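Purified cruzain at 1.5 nM, pre-incubated 15 min with compound at room temperature in 100 mM sodium acetate pH 5.5, 5 mM DTT, 0.00005% Triton X-100. Reaction started with 2 uM Z-FR-AMC; AMC fluorescence increase over 60 s gives rate.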
Cruzain Triton = cruzain (T. cruzi) inhibition with detergent; 200,000 compounds, 0.43% hits; purified cruzain, Z-FR-AMC fluorescence, 0.01% Triton; Potency, µM, for inactives: max response, negative = inhibition, most hits filed as inhibitors; P25779;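 also: plate controls were neutral wells for no effect and buffer without enzyme for full effect; nearly all actives have a fitted effect of over 40% in size; top concentration of the series not given in the record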
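Detergent-containing arm of a paired screen for aggregation-based inhibition: 0.01% Triton X-100 present. Cruzain at 1.5 nM cleaved 2 uM Z-FR-AMC at pH 5.5 with 5 mM DTT; AMC fluorescence gain over 60 s measured activity.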
2A StopGo = FMDV 2A StopGo reporter, luciferase signal; human cells with a luciferase reporter of 2A StopGo recoding; control for the full effect not named in the record; Potency, µM (series often up to 57.9 µM), without a hit: at the highest dose signal change, negative = less light; 410,000 compounds, 1.2% hits; active = well fitted falling curve with a large enough effect; inconclusive = small, poorly fitted or top-dose-only effect; inactive = no such curve, though single readings can be large or run the other way; tested in HEK293T cells; also: % is scaled to controls: 0 for no effect and ±100 for the full control effect; nearly all actives have a fitted effect of over 45% in size; luciferase light after 4 h
LASV entry inh = blocks Lassa virus binding to or entry into cells; Lassa virus pseudotype entry inhibition, cell reporter; control for the full effect not named in the record; Potency, µM (top dose mostly 37.9 µM), for inactives: top-dose activity change, negative = inhibition, usual class: inhibitors; 300,000 compounds, 1.2% hits; active means well fitted inhibition curve with a large enough effect; inconclusive means small, poorly fitted or top-dose-only effect, or effect the other way; inactive means flat fitted curve, though single readings scatter; tested in HEK293 cells; also: % is scaled to controls: 0 for no effect and ±100 for the full control effect; nearly all actives have a fitted effect of over 50% in size; luciferase read-out
SARS PLP yeast = SARS-CoV PLP inhibition in yeast. S. cerevisiae expressing SARS-CoV PLpro, growth rescue; control for the full effect not named in the record. Potency, µM (series often up to 32.9 µM), for the others: at the highest dose activity, positive = growth rescue. 330,000 compounds, 0.19% hits. AID 485353; active means well fitted rising curve with a large enough effect; inconclusive means small, poorly fitted or top-dose-only effect; inactive means no such curve, though single readings can be large or run the other way; also: 0% is about no effect; nearly all actives have a fitted effect of over 55% in size; growth read by luminescence after 48 h
An asterisk follows results filed as active; ? = inconclusive; . = no result given; & = joins results of further samples; [ ] = remark or other dose. Unless noted, calls follow the shape of the dose curve; as a rule, active = well fitted curve in the direction sought with a large enough effect; inconclusive = small, poorly fitted or top-dose-only effect, or another doubt; inactive = no such curve, though single readings can be large; an effect the other way counts as inactive or inconclusive. Potency is read from the fitted curve at half-maximal effect.

structure	RE007 growth inh	NS1 function inh	Marburg entry inh	Cruzain inh noDet	Cruzain Triton	2A StopGo	LASV entry inh	SARS PLP yeast
Fc1ccc(Cc2cn3cc(-c4ccc(Cl)cc4)nc3s2)cc1	.	.	?	9%	-1.6%	3%	31%[46.1 µM]	.
CCOc1ccc(NC(=O)CSc2ccc(-c3sc(-c4ccccc4)nc3C)nn2)cc1	.	.	.	4%	-0.1%	10%	?	.
O=c1cc(-c2ccccc2)oc2ccc(O)cc12	-9%	-37%	.	.	.	82%[activator]	.	-2%
C=CCOn1c(-n2nc(C)cc2C)nc2ccccc2c1=O	6%	2%	5%[46.1 µM]	.	.	-4%	11%	1%
Cc1nc2ccccc2c(=O)n1-c1ccc(NC(=O)c2ccccc2[N+](=O)[O-])cc1	.	.	.	8%	0.9%	-19%	7%[46.1 µM]	.
O=C(COC(=O)c1cccc(S(=O)(=O)NCc2ccccc2)c1)Nc1ccccc1OC(F)F	20%	4%	9%	4%	-4.7%	0%	16%	1%
Cc1ccc(NC(=O)COC(=O)CSC(=S)N2CCOCC2)cc1	4%	-4%	3%	.	.	29%	16%	0%
Cc1ccsc1C(=O)OCC(=O)N(Cc1ccccc1)C(C)C	6%	.	1%[46.1 µM]	.	.	-10%	14%[46.1 µM]	11%
O=C(COC(=O)C(Cc1ccccc1)NC(=O)c1ccc(Cl)cc1)c1ccc(Cl)cc1 (stereo not given)	6%	-31%	2%	-6%	-4.5%	5%	-4%	6%
CC(C)COc1ccc(C(=O)Nc2scc(-c3ccc(Cl)cc3Cl)c2C(N)=O)cc1	16%	22%	?	10µM*	-18%	?	-5%	-5%

(list continues)
structure	RE007 growth inh	NS1 function inh	Marburg entry inh	Cruzain inh noDet	Cruzain Triton	2A StopGo	LASV entry inh	SARS PLP yeast
COc1cc(OC)cc(C(=O)N(Cc2cc3cc(C)ccc3[nH]c2=O)C(C)C)c1	8%	-35%	0%	12%	-0.1%	-15%	-17%	-3%
COc1ccc(CCNc2oc(COc3ccccc3)nc2C#N)cc1	36%	-72%	4%&4%	1%	-8.3%	-22%	?	-20%
O=C(CSc1nc2ccccc2[nH]1)Nc1nc(-c2ccc(Br)cc2)cs1	3%	25%	?	?	-4.0%	22µM*	?	-7%
CCc1nnc(NC(=O)c2ccc(S(=O)(=O)N(CCOC)CCOC)cc2)o1	-10%	0%	-2%[46.1 µM]	1%	3.0%	-14%	-6%	-1%
COc1ccc(OC)c(CNC(=O)C2CCCN(c3ncnc4c3nc3n4CCCCC3)C2)c1 (stereo not given)	-16%	-12%	?	.	.	-23%	7%[46.1 µM]	-2%
O=C(Nc1nc2ccc([N+](=O)[O-])cc2s1)C1CCCO1 (stereo not given)	2%	-2%	-23%[46.1 µM]	.	.	20%	2%	-1%
Cc1ccc(N=Nc2c(N)n(-c3ccccc3)[nH]c2=O)cc1	-17%	16%	?	-4%	-8.1%	51%[activator]	?	2%
COc1ccc(CN=C(Nc2ccccc2)SC2CC(=O)N(C)C2=O)cc1 (stereo not given)	-2%	6%	?	?	-1.9%	-9%	-23%	13%
Cc1[nH]c(=O)[nH]c1CN1CCCCC1	.	-3%	-1%	-3%	-0.6%	.	.	-2%
CCOC(=O)N1CCc2c(sc(N)c2C#N)C1	4%	5%	?	.	.	11%	-9%[46.1 µM]	-2%

Carrying on.
structure	RE007 growth inh	NS1 function inh	Marburg entry inh	Cruzain inh noDet	Cruzain Triton	2A StopGo	LASV entry inh	SARS PLP yeast
CC1Cc2ccccc2N1c1ncnc(N)c1[N+](=O)[O-] (stereo not given)	5%	-10%	13%	.	.	?	10%	1%
CCN(CC(=O)N1CCc2ccccc2C1)S(=O)(=O)c1ccc2ccccc2c1	9%	7%	-19%	-9%	2.4%	-18%	?	7%
Cc1cc(NC(=O)CSc2sc3c(O)cc(=O)[nH]c3c2C#N)ccc1Br	0%	?	4%[46.1 µM]	.	.	4%	18%[46.1 µM]	8%
CCCCn1c(CCNC(=O)c2cccs2)nc2ccccc21	11%	?	-3%&-2%	10µM*	-16%	-16%	-1%	-7%
COc1cccc(C2=NOC(C(=O)Nc3cccnc3Cl)C2)c1 (stereo not given)	-11%	.	-4%[46.1 µM]	.	.	-16%	9%[46.1 µM]	0%
O=C(Nc1cccc2ccccc12)NC(Cc1ccccc1)C(=O)O (stereo not given)	-3%	2%	?	.	.	12%	-3%	1%
CSc1ccc(C2=C/C(=C3/SC(=S)NC3=O)c3ccccc3O2)cc1	12%	.	0%[46.1 µM]	.	.	2%	15%	.
Cc1ccc(-n2c(C)cc(/C=N/NC(=O)CN(c3ccc(C)cc3C)S(C)(=O)=O)c2C)cc1	11%	11%	?	-5%	-2.1%	-19%	-28%	4%
CN(C)c1nc2sc3c(c2c(=O)n1C)CC(C)(C)OC3	0%	-5%	4%	-9%	-0.7%	27%	?	0%
c1ccc(CCC2=NCCn3cccc32)cc1	-13%&7%	7%	?	5%	-1.5%	1%&5%	-4%&-18%	0%

(continued)
structure	RE007 growth inh	NS1 function inh	Marburg entry inh	Cruzain inh noDet	Cruzain Triton	2A StopGo	LASV entry inh	SARS PLP yeast
O=C(Cn1c(=O)c2c(ncn2Cc2ccccc2)n(Cc2ccccc2)c1=O)NC1CC1	1%	-2%	14%	-18%	1.9%	-11%	-2%	-9%
CCOc1ccccc1NC(=O)C1CC2CCCC(C1)C2=O (stereo not given)	-11%	-6%	-7%	-3%	5.3%	-19%	2%	-1%
CCC(C)Nc1nc(N)c([N+](=O)[O-])c(Nc2cc(OC)ccc2OC)n1 (stereo not given)	26%	5%	?	.	.	?	?	-2%
COc1ccccc1C(=O)Nc1c2c(nn1-c1ccc(Cl)cc1)CS(=O)(=O)C2	-12%	-8%	.	.	.	-25%	.	0%
CC(=O)N1c2ccc(S(=O)(=O)N(C)Cc3ccco3)cc2CC1C (stereo not given)	11%	0%	2%[46.1 µM]	.	.	-5%	?	5%
COCC(=O)Nc1cccc(C(F)(F)F)c1	20%	0%[9.22 µM]	?	2%	-1.3%	-9%	-6%	-7%
CC(=O)Nc1cc(C(=O)OCc2cccc([N+](=O)[O-])c2)ccc1C	6%	.	4%[46.1 µM]	.	.	16%	5%	0%
CCCN(CCC)CCCNC(=O)c1nn(C)c2c1CS(=O)(=O)c1ccccc1-2	.	.	.	-2%	1.4%	14%	?	.
COC(=O)CN1C(=S)N(c2ccc(F)cc2)C(=O)C1CC(=O)Nc1ccc(F)cc1 (stereo not given)	10%	1%	-5%[46.1 µM]	.	.	-5%	25%[46.1 µM]	0%
O=C(COc1ccccc1[N+](=O)[O-])N(Cc1ccco1)C1CCS(=O)(=O)C1 (stereo not given)	-4%	7%	.	.	.	-13%	.	3%

Next section.
structure	RE007 growth inh	NS1 function inh	Marburg entry inh	Cruzain inh noDet	Cruzain Triton	2A StopGo	LASV entry inh	SARS PLP yeast
Cc1ccccc1C(=O)NC(=S)NCc1ccccc1	-1%	20%	11%[46.1 µM]	.	.	6%	?	15%
CCOC(=O)C1CCN(S(=O)(=O)c2cccc(-c3cn4cc(C)ccc4n3)c2)CC1	-6%	-7%	?	0%	-6.2%	?	-24%	-6%
O=C(Cc1ccc(N2CCNC2=O)cc1)N1CCCC(Nc2cccc(F)c2)C1 (stereo not given)	2%	4%	.	.	.	-8%	.	0%
O=C(Nc1cccc(F)c1)NC1CCCCCCC1	-5%	-53%	?	.	.	16%	13µM*	-8%
COc1cc(NS(=O)(=O)c2ccc(NC(=O)/C(=C\c3ccccc3OC)NC(=O)c3ccccc3)cc2)nc(OC)n1	13%	27%	12%	-9%	-9.2%	.	10%	-1%
CC(C)(C)c1ccccc1NC(=S)NCc1ccccc1	-1%	-24%	?	-2%	-6.0%	-1%	-13%	-50%
COc1cccc(C(=O)C2CCCN(Cc3ccon3)C2)c1 (stereo not given)	?	-1%	-24%[46.1 µM]	.	.	6%	2%	1%
Cc1ccc(-n2nc(CO)c(C(=O)NC(C)c3ccccc3)n2)cc1C (stereo not given)	.	.	-4%[46.1 µM]	-8%	-5.6%	?	?	.
Cc1c(NC(=O)c2c(N)sc3c2CCCC3)c(=O)n(-c2ccccc2)n1C	0%	.	14%[46.1 µM]	.	.	12%	3%[46.1 µM]	1%
COCCCNC(=O)CN(c1cc(Cl)ccc1OC)S(=O)(=O)c1ccc(C)c([N+](=O)[O-])c1	-3%	0%	-12%[46.1 µM]	.	.	5%	?	1%
COc1cccc(NC(=O)c2nc3nc(C)cc(C(F)F)n3n2)c1	-3%	-1%	.	-8%	-1.5%	-11%	.	-4%

Full records, quoted from the list.
`Cc1c(NC(=O)c2c(N)sc3c2CCCC3)c(=O)n(-c2ccccc2)n1C` is listed with RE007 growth inh = 0%; NS1 function inh = .; Marburg entry inh = 14%[46.1 µM]; Cruzain inh noDet = .; Cruzain Triton = .; 2A StopGo = 12%; LASV entry inh = 3%[46.1 µM]; SARS PLP yeast = 1%
`O=C(Nc1cccc(F)c1)NC1CCCCCCC1` is listed with RE007 growth inh = -5%; NS1 function inh = -53%; Marburg entry inh = ?; Cruzain inh noDet = .; Cruzain Triton = .; 2A StopGo = 16%; LASV entry inh = 13µM*; SARS PLP yeast = -8%

An excerpt from above in order of molecular weight, rising.
structure	RE007 growth inh	NS1 function inh	Marburg entry inh	Cruzain inh noDet	Cruzain Triton	2A StopGo	LASV entry inh	SARS PLP yeast
Cc1[nH]c(=O)[nH]c1CN1CCCCC1	.	-3%	-1%	-3%	-0.6%	.	.	-2%
CCOC(=O)N1CCc2c(sc(N)c2C#N)C1	4%	5%	?	.	.	11%	-9%[46.1 µM]	-2%
O=C(COC(=O)c1cccc(S(=O)(=O)NCc2ccccc2)c1)Nc1ccccc1OC(F)F	20%	4%	9%	4%	-4.7%	0%	16%	1%

This is a random part of the collection; overall some 4.7% were active at least once.
